CtBP-E1A inh: blocks the CtBP interaction with E1A. AlphaScreen GST-E1A/His-CtBP binding, 1536-well; hits give low values; control for the full effect not named in the record. activity change, % (no concentration beside the values). hit rate 0.49% among 340,000. AID 651724; in the data active means activity change below about -65%; inconclusive means about -30% to -65%; inactive means above about -30%; further: on the % scale 0 is the no-effect control and ±100 the full control effect; compound concentration not given in the record
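AlphaScreen with 125 nM GST-E1A and 125 nM His-CtBP (5X stocks) in Tris pH 8.0, 300 mM NaCl, BSA, Tween 20, TCEP. Compounds preincubated 2 h at 37 deg C, then glutathione donor/nickel acceptor beads added for 1 h at 37 deg C in dark.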
PINK1 modulator: modulators of PINK1 expression. PINK1 immunofluorescence, high-content cytometry, 24 h. Potency, µM (highest dose often 76.6 µM), for inactives: at the top dose activation (PINK1 increase), hits mostly activators. hit rate 0.2% among 410,000; active = well fitted activation curve with a large enough effect; inconclusive = small, poorly fitted or top-dose-only effect; inactive = flat fitted curve, though single readings scatter; cell line not stated here;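 further: potency means the concentration at half of the fitted maximal effect; % of control where 0% means no effect; nearly all actives have a fitted effect of over 65% in size; a mitochondrial uncoupler was the plate control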
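Measures PINK1 amount and localization on or inside mitochondria by immunofluorescence. Stable cells get compounds at 5 concentrations for 24 hours before fixation and staining; CCCP controls included.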
TRPML1 agonist: human mucolipin-1 channel agonism | Q9GZU1 | TRPML1-expressing cells, Ca2+ dye fluorescence, FDSS; host cell line not named in the record; reference of the full effect not given here | activation, % (test concentration not listed) | hit rate 0.12% among 410,000 | AID 624414; in the data active = activation above about 50%; inconclusive = about 30% to 50%; inactive = below about 30%; further: 0% is about no effect; the text of the record puts the active cut at 80%
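Tetracycline-induced TRPML1-DL cells are seeded and incubated overnight before loading with a no-wash Ca2+ dye and quencher. Agonist activity is taken from the 110 s fluorescence read following compound pin-transfer on an FDSS, before EC80 54-4 challenge.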
TRPML1 inh: human mucolipin-1 channel inhibition. activity change, negative = inhibition, % (concentration not given with the values). AID 624415. Q9GZU1. hit rate 0.02% among 390,000. TRPML1-inducible cells, Ca2+ dye fluorescence, FDSS; hits give low values; inhibition of EC80 agonist-evoked calcium signal; in the data active means activity change below about -50%; inconclusive means about -30% to -50%; inactive means above about -30%;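 further: stimulus is agonist 54-4 at its EC80 concentration; on the % scale 0 is the no-effect control and ±100 the full control effect; compound concentration not given in the record; the text of the record puts the active cut at -80%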
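Tet-induced TRPML1-DL cells loaded with Ca8 no-wash calcium dye were read kinetically on FDSS. Compound addition was followed by EC80 agonist 54-4 (4 uM final); inhibition was read over 110 s.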
D2 ag: human D2 receptor agonism in beta-arrestin assay | DiscoveRx PathHunter D2 beta-arrestin, luminescence, 90 min; 100% = 57 uM dopamine signal | activation, % (no concentration beside the values) | hit rate 0.084% among 360,000; in the data active = activation above about 40%; inconclusive = about 15% to 40%; inactive = below about 15%; further: compound concentration not given in the record; the text of the record calls up to 30% inactive
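Agonist mode: compounds alone added to overnight-plated D2 PathHunter cells for 90 min at 37 C, with 57 uM final dopamine (EC100) defining full response. Beta-arrestin recruitment detected by chemiluminescent reagent, read after 1 h at ambient temperature.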
Six1-Eya2 inh: blocks human Six1 binding to Eya2. hit rate 0.56% among 360,000. activity change, % (concentration not given with the values). Q15475+O00167. AlphaScreen GST-Six1/His-Eya2 binding, biochemical; hits give low values; control for the full effect not named in the record; in the data active = activity change below about -65%; inconclusive = about -30% to -65%; inactive = above about -30%; further: on the % scale 0 is the no-effect control and ±100 the full control effect
Target sequence (O00167 whole entry, looked up): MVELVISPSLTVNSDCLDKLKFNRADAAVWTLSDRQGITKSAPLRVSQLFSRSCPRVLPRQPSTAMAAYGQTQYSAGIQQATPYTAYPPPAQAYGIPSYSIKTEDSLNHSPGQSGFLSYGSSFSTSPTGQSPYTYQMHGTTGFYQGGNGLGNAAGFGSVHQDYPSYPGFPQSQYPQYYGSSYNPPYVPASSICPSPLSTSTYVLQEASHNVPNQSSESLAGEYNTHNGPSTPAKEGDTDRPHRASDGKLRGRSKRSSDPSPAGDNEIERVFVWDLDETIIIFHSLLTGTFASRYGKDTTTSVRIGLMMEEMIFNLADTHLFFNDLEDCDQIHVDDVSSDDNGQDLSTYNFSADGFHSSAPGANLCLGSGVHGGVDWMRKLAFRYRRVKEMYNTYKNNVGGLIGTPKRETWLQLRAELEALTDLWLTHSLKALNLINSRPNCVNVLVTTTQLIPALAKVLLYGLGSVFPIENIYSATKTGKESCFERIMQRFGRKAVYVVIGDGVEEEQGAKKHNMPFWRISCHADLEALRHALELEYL
Target sequence (Q15475 whole entry, looked up): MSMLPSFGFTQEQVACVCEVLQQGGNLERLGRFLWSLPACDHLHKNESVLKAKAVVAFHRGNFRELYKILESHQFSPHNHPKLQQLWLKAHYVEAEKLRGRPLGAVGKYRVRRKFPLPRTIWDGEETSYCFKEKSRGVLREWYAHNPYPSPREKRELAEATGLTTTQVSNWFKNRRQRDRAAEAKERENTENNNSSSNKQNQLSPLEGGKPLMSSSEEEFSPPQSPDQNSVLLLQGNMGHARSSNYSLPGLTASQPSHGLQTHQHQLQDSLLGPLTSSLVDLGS
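Homogeneous AlphaScreen proximity assay pairing GST-Six1 with His-tagged Eya2 (added as 5X mix: 250 nM and 500 nM) in 50 mM Tris pH 8.0, 300 mM NaCl, 1 mM TCEP. Glutathione donor and nickel acceptor beads; 1 h, 37 °C, dark.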
Active calls of the source: *; ? = inconclusive; . = not tested or not shown; & = joins results of further samples; [ ] = dose if it differs, or a comment.

SMILES	CtBP-E1A inh	PINK1 modulator	TRPML1 agonist	TRPML1 inh	D2 ag	Six1-Eya2 inh
CCc1nc2ccc(C(=O)N3CCN(C(=O)c4ccco4)CC3)cn2c1N(C)C(=O)C1CCCCC1	-3.1	-0.5%	0.5	42.3	-4.6	10.0
O=C(CSc1nc2ccccc2s1)c1ccc(O)cc1O	-1.9	?	.	.	-5.2	-21.4
CCN(CC(=O)N1CCN(c2ccccc2)CC1)S(=O)(=O)c1ccc(C)cc1	1.4	-0.7%	1.3	5.8	-1.4	-2.3
Cc1ccc(Oc2ccc(NC(=O)Cn3ccsc3=N)cc2)cc1	0.2	-2.4%	15.1	43.4	1.3	-6.2
Cc1c(Cl)cccc1Nc1nn2c(=O)c3ccc(C(=O)NCCc4ccccc4)cc3nc2s1	.	0.8%	-0.1	-10.4	.	.
O=C(CNc1ccc(C(F)(F)F)cc1)Nc1cccc(S(=O)(=O)N2CCCC2)c1	-17.4	4.0%	-0.4	-2.2	-4.5	-0.3
Cc1cccn2c(=O)c3cc(C(=O)NC4CCS(=O)(=O)C4)sc3nc12 (configuration not stated)	-23.3	7.1%	-0.7	-9.8	-1.7	-27.4
CCOc1cnc(-c2ccccc2F)o1	3.7	-1.3%	1.4	10.2	-1.3	0.4
COc1ccc(Cl)cc1CN1C(=O)C(Cc2ccccc2)ON=C1C (configuration not stated)	-5.3	0.1%	-0.2	.	-4.1	8.7
CC(O)C(NS(=O)(=O)c1ccc(Cl)cc1)C(=O)OCc1nnc(-c2ccccc2)o1 (configuration not stated)	4.2	-0.6%	0.0	-8.3	-0.9	6.9
COC(=O)c1cc(NS(=O)(=O)c2cccc(Cl)c2)ccc1N1CCOCC1	.	0.1%	0.8	-10.5	7.0	1.1
O=C(O)CN1CCN(Cc2ccccc2F)C1=O	-2.2	-1.2%	0.0	-7.3	0.6	1.7
COCn1cnc(-c2ccccc2)c1-c1ccccc1	-1.0	-1.0%	0.9	-1.7	1.9	-7.3
CCN(CC)c1cc(CS(=O)c2ccccc2)nc(-c2ccccc2)n1 (configuration not stated)	-9.1	-4.5%	2.3	1.1	-6.3	-0.5
Nc1nc(CN2CCN(Cc3ccccc3)CC2)nc(Nc2ccc3c(c2)OCCO3)n1	-1.5	-2.5%	1.6	0.1	-2.1	-12.9
CCc1ccccc1NC(=O)C(C)n1c(=O)cc(C)c2c(C)nn(-c3ccccc3)c21 (configuration not stated)	.	1.7%	1.1	-9.9	.	.
Cc1ccc(CN(C)C(=O)c2cccc(S(=O)(=O)N3CCN(Cc4ccccc4)CC3)c2)o1	-7.7	2.6%	-0.8	-6.7	-3.0	-15.6
NC(=O)c1ccccc1NC(=O)CCCCCn1nnc2ccccc2c1=O	.	-1.6%	3.4	4.9	-5.0	4.3
C/C(=N/NC(=O)c1cc(-c2ccc(Cl)s2)[nH]n1)c1ccco1	-3.9	6.5%	0.4	10.5	1.0	-1.8
COc1cc(NS(=O)(=O)c2ccc3c(c2)n(C)c(=O)n3C)cc(OC)c1	-2.8	0.9%	?	-8.4	1.2	-1.1
CCCC(=O)Nc1ccc(S(=O)(=O)N2CCC(c3nc4ccccc4[nH]3)CC2)cc1	5.1	0.6%	1.0	-4.9	-5.2	-9.7
CC(C)OC(=O)NCN1C(=O)C2C3C=CC(C3)C2C1=O (configuration not stated)	-2.3	0.7%	1.1	-18.9	-2.3	4.4
O=C(Nc1ccccc1)Nc1nnc(COc2ccccc2F)s1	-1.7	?	0.7	14.3	2.7	0.1
COc1ccc(C(=O)NCCS(=O)(=O)NCC2CCCO2)cc1 (configuration not stated)	-11.7	2.1%	0.6	13.4	-3.7	9.1
Cc1ccc(NS(=O)(=O)c2ccc(-c3csc(C)n3)s2)c(C)c1	-17.0	3.4%	-0.8	5.2	0.2	2.9
COc1ccccc1NC(=O)Nc1c(C)n(C)n(-c2ccccc2)c1=O	5.5	-11.7%[38.3 µM]	-0.6	34.3	-5.5	-0.5
CCN(CC)S(=O)(=O)c1ccc(C)c(NC(=O)COc2ccc(Br)cc2Cl)c1	-0.7	?	2.8	37.0	2.4	2.2
Cc1nnc(NCc2ccccc2)c2ccccc12	-9.1	1.6%	-0.2	6.3	0.6	-4.5
CCN(CC)C(=O)CSc1nnc2nnc3cc(C)ccc3n12	3.6	-0.6%	0.9	57.1	1.6	1.7
CC(CCc1ccccc1)NC(=O)COC(=O)C1CCC(C(C)(C)C)CC1 (configuration not stated)	18.0	0.8%	-0.7	-3.8	-1.2	3.0
Cc1ccc(NC(=O)N2CCCCC2)cc1[N+](=O)[O-]	.	-0.2%	1.0	13.7	-1.9	-18.8
Cc1ccc(C(=O)Nc2cc(=O)n(C)c(=O)n2C)o1	-4.2	?	-0.6	-2.6	-1.6	-0.6
COc1ccc(-c2cc(C(=O)N3CCc4ccccc4C3)no2)cc1	.	1.4%	0.8	27.6	-5.0	-0.2
COc1ccccc1NC(=O)CSc1ccc2nnc(-c3ccccn3)n2n1	0.2	-0.6%	-0.1	13.3	-5.8	-5.7
O=C(NC(=S)Nc1cccnc1)c1cc2ccccc2o1	10.2	-0.4%	1.2	30.3	-4.1	2.0
CC(C)=CCC[C@H](C)C[C@@H]1Cc2[nH]c(=S)[nH]c(=O)c2[C@@H](c2ccc(F)cc2)O1	-9.8	1.4%	-0.4	.	.	-4.4
CC(C)(C)c1cc(=O)n2c(C#N)c(C#N)nc2[nH]1	0.4	1.5%	-1.0	-7.9	-2.1	-3.6
Cc1ccccc1CC1(CO)CCCN(C(=O)CCN2CCCO2)C1 (configuration not stated)	-0.4	-0.6%	-0.4	-5.6	-0.1	0.2
CN1CCN(CCCC(=O)c2ccc(C3CCCC3)cc2)CC1	-13.2	-1.7%	-0.3	25.7	-5.4	-18.4
CC(C)(C)C(=O)Nc1cc2nn(-c3ccccc3)nc2cc1Cl	26.5	-0.4%	0.8	8.7	-0.9	55.6
CCn1c(SCC(=O)N2CCCC2=O)nnc1-c1cccs1	-0.1	-1.0%	0.0	7.0	-7.2	5.1
CN(C(=O)CSc1nnc(COc2ccccc2F)n1N)C1CCS(=O)(=O)C1 (configuration not stated)	-0.5	0.3%	1.4	9.6	-0.7	2.5
CCOc1ccc(S(=O)(=O)N(CC(=O)NC2CCCC2)c2ccc(F)cc2)cc1	-4.9	7.9%	0.0	0.2	2.8	6.6
N=c1ccn2c(n1)OC1C(O)C(CO)OC12 (configuration not stated)	.	-1.5%&0.0%	-0.4	5.3	1.0	-0.1
O=C(/C=C/c1ccc(S(=O)(=O)N2CCOCC2)cc1)Nc1cc(F)ccc1F	-5.4	0.6%	-0.1	-6.0	1.1	-4.7
CCOc1cc(S(=O)(=O)NCc2ccncc2)ccc1Cl	-0.2	1.1%	0.5	-3.4	4.3	5.7
CN(C)CCC#CC(O)(c1ccccc1)c1ccccc1	-0.2	-1.1%	1.0	16.0	-0.2	0.6
O=C1/C(=C/c2ccccn2)SC(=S)N1CCc1ccccc1	.	0.7%	0.0	-3.6	-0.5	-14.6
COc1ccc(-c2cn(Cc3ccc(C)cc3)nn2)cc1	9.6	5.1%	0.4&-0.9	-5.4	-0.8	7.7
COc1ccc(NC(=O)COC(=O)c2c(C)noc2C)c(OC)c1	0.4	-3.0%	0.9	-10.5	-4.1	6.3
O=C(OCc1cc(=O)n2nc(-c3cccs3)sc2n1)c1ccccc1Cl	.	?	-0.6	1.9	.	.
COCCNC(=O)C1c2cc(OC)c(OC)cc2C(=O)N(C)C1c1cccnc1 (configuration not stated)	4.3	-0.1%	1.1	3.7	-0.9	0.0
Cc1cc(C)n2nc(CC(=O)NNC(=O)c3ccccc3Cl)nc2n1	-8.2	0.7%	0.3	3.5	-2.0	1.1
Cc1c(/C(O)=C2\C(=O)C(=O)N(CCN(C)C)C2c2ccccc2)cnn1-c1ccccc1 (configuration not stated)	10.6	0.7%	0.4	-5.2	-4.2	-2.0
COc1ccc(Nc2nc(Nc3ccc(OC)cc3)nc(SC3=NCCS3)n2)cc1	-24.0	2.5%	-0.2	20.6	-4.4	?
CN(CCc1cnn(C)c1)Cc1cn(C)nc1-c1ccccc1F	13.5	5.3%	0.5	1.5	-1.9	1.3
O=C(c1ccccc1Cl)N1N=C(c2ccc(Br)cc2)CC1c1nc2ccccc2[nH]1 (configuration not stated)	-3.1	-0.7%	2.8	-7.3	-2.7	-10.8
Cc1cccc(N(CC(=O)N2CCCCCC2)S(C)(=O)=O)c1	.	1.5%	-0.2	2.7	-2.7	-5.3
CCn1c2ccccc2c2nnc(SCC(=O)Nc3ccccc3OC)nc21	.	0.1%	1.5	-5.6	.	.
N#C/C(=C\c1ccc(O)c(O)c1)S(=O)(=O)c1ccccc1	-11.7	-2.1%	5.4	15.4	-3.9	0.9

Later entries
SMILES	CtBP-E1A inh	PINK1 modulator	TRPML1 agonist	TRPML1 inh	D2 ag	Six1-Eya2 inh
CC(C)CN(C(=O)COC(=O)CN1C(=O)c2ccccc2C1=O)c1c(N)n(Cc2ccccc2)c(=O)[nH]c1=O	10.0	-2.0%	0.3	-11.3	-4.1	-0.2
O=C(NCCC1=CCCCC1)C1CCC(=O)N(Cc2ccc(Cl)cc2)C1 (configuration not stated)	5.0	0.4%	-0.4	-12.1	3.0	4.5
CCOc1ccc(CN2C(=O)c3ccccc3Sc3ccc(C(=O)NC)cc32)cc1	.	7.4%	-0.5	17.8	.	.
NC(=O)c1ccc(SCC(=O)OCC(=O)N2CCCCC2)c([N+](=O)[O-])c1	2.2	-0.3%	-0.7	-9.3	-2.4	4.1
O=C(COC(=O)c1cc2ccccc2oc1=O)Nc1ccc(F)cc1F	0.5	-0.3%	.	.	-3.7	3.7
O=C(CSc1nccn1C1CCCC1)Nc1ccccc1	.	1.4%	2.9	1.0	.	.
CCC(=O)OC1(C)C(=O)C=C2C=C(C3CC3)OC=C2C1=O (configuration not stated)	-5.6	2.1%	1.8	17.0	6.2	3.3
CSc1ccc(S(=O)(=O)N2CCC(C(=O)NCc3cccnc3)CC2)cc1	-4.1	-3.5%	0.1	-6.4	-4.8	4.5
CC(NC(=O)CSCc1ccc(Br)cc1)c1ccccc1 (configuration not stated)	-8.8	-1.4%	0.0	25.0	0.5	1.1
CC1=Nc2cc(C(=O)NC3CCCCC3)ccc2Sc2ccc(Cl)cc21	.	0.8%	-0.7	4.4	.	.
Cc1ccc(S(=O)(=O)NC(C)C(=O)Nc2cccc([N+](=O)[O-])c2)cc1 (configuration not stated)	-10.2	-0.8%	-0.4	-2.7	-4.0	8.3
